Assay outcomes from PubChem BioAssay.
liver stage: Plasmodium liver-stage growth inhibition, dose response, imaging, Malaria Box, P. yoelii, HepG2-A16-CD81EGFP (AID 602156). hit rate 4.8% among 5,700. calls after a first round at 10 µM; hits with a dose series show IC50 in µM. P. yoelii liver stage in HepG2-A16-CD81EGFP, imaging; first-round cut-off not given here; in the data active means a potency from the dose series;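 further: infected cells exposed to compound for 48 hours before fixation; stained parasite area by imaging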
Active calls of the source: *. An excerpt (hit frequency here may not be typical).

CCN1CCCC1CNc1ncnc2c1[nH]c1ccc(C)cc12 (centres undefined) was read as liver stage inactive.
COc1ccc(C(C)=O)cc1N1C(=O)C2C(C1=O)C1(c3ccccc3)C(=O)C2(c2ccccc2)C(c2ccc(C)cc2)=C1c1ccc(C)cc1 (centres undefined) was read as liver stage inactive.
`COc1ccc(C2CC(=O)C3=C(C2)NC(C)=C(C(=O)OC2CCCC2)C3c2ccccc2OC)cc1OC` (centres undefined) gave liver stage inactive.
COc1cc(CNc2cc(OCCOc3ccc(Cl)cc3)cc(C(=O)NC3CCN(Cc4ccccc4)CC3)c2)ccc1OCc1ccccc1 was read as liver stage inactive.
`O=C(Nc1ccc2nc3n(c(=O)c2c1)CCCCC3)C(=O)N1CCN(c2ccccc2)CC1` gave liver stage inactive.
`CC[n+]1c(/C=C2\Sc3cc(C)ccc3N2CCO)ccc2ccccc21` gave liver stage inactive.
Screening Cc1c(C(=O)N2CCN(c3cccc(Cl)c3)CC2)sc2ncnc(N(C)c3ccccc3)c12 returned liver stage inactive.
COc1ccc(/C=C\c2nc(=O)c3ccccc3o2)cc1 was read as liver stage inactive.
CCC(C)NC(=O)C1CSC(c2cccc(F)c2)N1C(=O)c1cc(OC)c(OC)c(OC)c1 (centres undefined) was read as liver stage inactive.
Screening CCOC(=O)N=Nc1c2ccccc2c2nc3no[nH]c3nc12 returned liver stage inactive.
Screening COc1ccc(/C=C2\SC(=O)NC2=Nc2ccccc2)c(OC)c1 returned liver stage inactive.
Screening Cc1c(C#N)c2ccccc2n1CC(=O)Nc1ccc(Br)cc1 returned liver stage inactive.
For O=C(C[n+]1cc(-c2ccccc2)n2c1CCC2)c1ccc(C2CCCCC2)cc1 the results were liver stage inactive.
Screening O=C(/C=C/c1ccccc1Cl)Nc1ccc(Oc2ccc3ccccc3c2Cl)c(Cl)c1 returned liver stage inactive.
`Cc1ccc(S(=O)(=O)N=C2C=C(Sc3nc4ccccc4[nH]3)C(=O)c3ccccc32)cc1` gave liver stage inactive.
Screening O=C(NCc1ccc(Cl)cc1)C1CNCC1c1ccc(C(F)(F)F)cc1 (centres undefined) returned liver stage inactive.
Cc1cccc(N2C(=O)C3C(C2=O)C2(c4ccccc4)C(=O)C3(c3ccccc3)C(c3ccccc3)=C2c2ccccc2)c1 (centres undefined) was read as liver stage inactive.
`CCCCC(=O)Nc1ccccc1-c1nnn(CC(=O)Nc2ccc3c(c2)OCCO3)n1` gave liver stage inactive.
`CC(C)C(=O)N(C)CCCNc1ccnc2cc(Cl)ccc12` gave liver stage inactive.
For N=C(N)c1ccc(OCCCCCOc2ccc(C(=N)N)cc2)cc1 the results were liver stage inactive.
OC(CN1CCN(c2ccnc3cc(Cl)ccc23)CC1)CN1CCN(c2ccnc3cc(Cl)ccc23)CC1 was read as liver stage inactive.
For CC(C)CNc1nc(NCCCN2CCCC2)ncc1C(=O)NCc1ccccc1 the results were liver stage inactive.
CC(C)C[C@H](NC(=O)N1CCOCC1)C(=O)N[C@H](/C=C/S(=O)(=O)c1ccccc1)CCc1ccccc1 was read as liver stage inactive.
`CCOC(=O)C1CCCN(C(=O)c2c(C)oc3c2C(=O)c2ccccc2C3=O)C1` (centres undefined) gave liver stage inactive.
Screening CC(NS(=O)(=O)c1ccccc1)C(=O)NC1CCCC1 (centres undefined) returned liver stage inactive.
`CCCCCCCCC(=O)N(C)CCCNc1ccnc2cc(Cl)ccc12` gave liver stage inactive.
Screening O=C(c1ccccc1F)N1CCN(Cc2ccccc2C(F)(F)F)CC1 returned liver stage inactive.
For COCCNC(=O)c1ccc2c(=O)n(Cc3ccc4c(c3)OCO4)c(=S)[nH]c2c1 the results were liver stage inactive.
Screening CCCCN(CCCC)C(=O)Cn1ccc(=N)c2ccccc21 returned liver stage inactive.
Screening COc1cccc(NC(=O)c2ccc3oc(=O)c(S(=O)(=O)c4ccccc4)cc3c2)c1 returned liver stage inactive.
O=C(Cn1c2ccccc2c(=O)c2cc([N+](=O)[O-])ccc21)Nc1cccc(Cl)c1 was read as liver stage inactive.
Screening Fc1cccc(Nc2nc(NCC3CCCO3)c3ccccc3n2)c1 (centres undefined) returned liver stage inactive.
c1ccc2cc3c(NCCCN4CCOCC4)ccnc3cc2c1 was read as liver stage inactive.
Screening COc1cc(NC(C)CCCN(Cc2ccc(OC)c(OC)c2)C(=O)NC2CCCCC2)c2ncccc2c1 (centres undefined) returned liver stage inactive.
Screening CSc1ccc(C=CC(=O)NC(=O)c2ccccc2O)cc1 returned liver stage inactive.
For CN(C)CCCN=C1NC=NC2C=C(Cl)C=CC12 (centres undefined) the results were liver stage inactive.
`CC(=O)N(C1=C(N2CCOCC2)C(=O)c2ccccc2C1=O)c1ccc(C(C)C)c(C)c1` gave liver stage inactive.
N#CCSc1nc2c(sc(=S)n2-c2ccccc2)c(=O)n1Cc1ccco1 was read as liver stage inactive.
Screening CCC(C)NC(=O)CSc1nnc(-c2cccnc2)n1-c1ccc(Cl)cc1 (centres undefined) returned liver stage inactive.
CCN(CC)C(=O)CSc1nnc(-c2ccccn2)n1-c1ccc(OC)cc1 was read as liver stage inactive.
Cc1cc(Nc2ccc(C)c(C)c2)n2cnnc2n1 was read as liver stage inactive.
Screening Cc1ccc2nc3c(c(Nc4ccc(N(C)C)cc4)c2c1)CCC3 returned liver stage inactive.
CCCS(=O)(=O)N1CCC(CO)(Cc2ccccc2C(F)(F)F)CC1 was read as liver stage inactive.
`CC(=O)N(C1=C(N2CCCC2)C(=O)c2ccccc2C1=O)c1ccc(F)c(F)c1` gave liver stage inactive.
COc1cccc(CNc2cc(C(=O)NCCNC(C)=O)cc(S(=O)(=O)N(C)C)c2)c1OC was read as liver stage inactive.

Structural class: those above with a cyano group.
Screening Cc1c(C#N)c2ccccc2n1CC(=O)Nc1ccc(Br)cc1 returned liver stage inactive.
N#CCSc1nc2c(sc(=S)n2-c2ccccc2)c(=O)n1Cc1ccco1 was read as liver stage inactive.

Later entries.
Cc1cccc(C)c1NC(=O)CN1C(=O)C(C)(C)Oc2ccc(C(=O)NC(C)(C)C)cc21 was read as liver stage inactive.
For Cc1ccc(Nc2nc(NCc3ccccc3)c3ccccc3n2)cc1 the results were liver stage 0.28µM*.
`COc1ccc(C(=O)Nc2ccc(-c3nc4ccc(NC(=O)c5ccc(OC)cc5)cc4[nH]3)cc2)cc1` gave liver stage inactive.
`COc1ccc2c(c1)C=C([C@@H]1C[C@H]3CN(c4ccccc4)C(=O)[C@]34CCCN14)CO2` gave liver stage inactive.
Screening Cc1c(C#N)c2ccccc2n1CC(=O)NCCc1ccccc1 returned liver stage inactive.
For CCOC(=O)C1=C(C)NC2=C(C(=O)C(C(=O)OC)C(C)C2)C1c1cc(Br)c(OC)c(OC)c1 (centres undefined) the results were liver stage inactive.
`Cc1ccc2cc3cc(C(=O)NC(C)C)sc3nc2c1` gave liver stage inactive.
For O=C(O[Si](c1ccccc1)(c1ccccc1)c1ccccc1)c1ccccc1 the results were liver stage inactive.
`Cc1nc(Cl)cc(N2CCc3c(nc(N4CC(C)OC(C)C4)[nH]c3=O)C2)n1` (centres undefined) gave liver stage inactive.
CC(CC(=O)Oc1ccccc1-c1nc2ccccn2c1NC(C)(C)CC(C)(C)C)CC(C)(C)C (centres undefined) was read as liver stage inactive.
Screening COC(=O)c1ccc(C2C3=C(CC(c4ccco4)CC3=O)Nc3ccccc3N2C(=O)c2ccccc2)cc1 (centres undefined) returned liver stage inactive.
For COc1cc(CNc2ccc3nc(N)nc(N)c3c2)cc(OC)c1OC the results were liver stage inactive.
c1ccc(C2=Nc3ccccc3N=C(c3ccccc3)c3ccccc32)cc1 was read as liver stage inactive.
Screening COc1ccc(Cn2nnnc2CN2CCc3ccccc3C2)cc1 returned liver stage inactive.
For COc1cc2c(cc1OC)-c1cc3ccc4c(c3c[n+]1CC2)OCO4 the results were liver stage inactive.

In the list so far, six have an NH in an aromatic ring:
CCN1CCCC1CNc1ncnc2c1[nH]c1ccc(C)cc12 (centres undefined) was read as liver stage inactive.
Screening CCOC(=O)N=Nc1c2ccccc2c2nc3no[nH]c3nc12 returned liver stage inactive.
`Cc1ccc(S(=O)(=O)N=C2C=C(Sc3nc4ccccc4[nH]3)C(=O)c3ccccc32)cc1` gave liver stage inactive.
For COCCNC(=O)c1ccc2c(=O)n(Cc3ccc4c(c3)OCO4)c(=S)[nH]c2c1 the results were liver stage inactive.
`COc1ccc(C(=O)Nc2ccc(-c3nc4ccc(NC(=O)c5ccc(OC)cc5)cc4[nH]3)cc2)cc1` gave liver stage inactive.
`Cc1nc(Cl)cc(N2CCc3c(nc(N4CC(C)OC(C)C4)[nH]c3=O)C2)n1` (centres undefined) gave liver stage inactive.

Next compounds
Screening CC(C)CN1C(=O)c2ccccc2C(C(=O)Nc2ccc(CN3CCC(C)CC3)cc2)C1c1cccs1 (centres undefined) returned liver stage inactive.
Cc1cc(Cl)c(S(=O)(=O)N2CCCC2)cc1OCC(=O)NC1CCCCC1 was read as liver stage inactive.
For CCCCN(C(=O)Nc1ccc(OCC)cc1)C(C)c1nc2ccccc2c(=O)n1-c1ccc(F)c(Cl)c1 (centres undefined) the results were liver stage inactive.
Screening CCOc1ccc(C(=O)C(CCC(C[N+]2(C)CCCCCC2)C(=O)c2ccc(OCC)cc2)C[N+]2(C)CCCCCC2)cc1 (centres undefined) returned liver stage inactive.
CC(C(=O)N1CCN(C(c2ccccc2)c2ccccc2)CC1)N(CCN1CCOCC1)S(=O)(=O)c1ccccn1 (centres undefined) was read as liver stage inactive.
CCN1CC=C2C(C#N)=C(N)C(C#N)(C#N)[C@H](c3ccc(C)s3)[C@H]2C1 was read as liver stage inactive.
For COc1ccc(CCN2C(=O)c3ccc(Oc4ccc(NC(=O)c5oc(=O)c6ccccc6c5-c5ccccc5)cc4)cc3C2=O)cc1OC the results were liver stage inactive.
`CCN1CCN(c2nc3ccccn3c(=O)c2/C=C2\SC(=S)N(C(C)C)C2=O)CC1` gave liver stage inactive.
`Cc1cccc(NC(c2cccc(F)c2)c2ccc3cccnc3c2O)n1` (centres undefined) gave liver stage inactive.
`COc1ccccc1/C=C\CN(C(=O)c1ccc(C)cc1)C(c1ccccc1)c1ccccc1` gave liver stage inactive.
`CCN1C(=Cc2ccc3cc(NC(C)=O)ccc3[n+]2CC)Sc2ccccc21` gave liver stage inactive.
Screening Cc1cc(Nc2ccc(Cl)cc2)nc(NCc2ccccc2)n1 returned liver stage inactive.
C[C@H](Nc1cncc(-c2ccc(Cl)cc2)n1)c1ccccc1 was read as liver stage inactive.
O=S(=O)(c1ccc(Cl)cc1)N1CCN(C(=S)NCC2CCCO2)CC1 (centres undefined) was read as liver stage inactive.
COc1ccc(-c2cc(C(=O)Nc3cc(Oc4ccc(NC(C)=O)cc4)cc([N+](=O)[O-])c3)c3ccccc3n2)cc1 was read as liver stage inactive.
`Nc1ccc(-c2cc(N)n(-c3ccc(Oc4ccccc4)c(S(=O)(=O)O)c3)n2)cc1` gave liver stage inactive.
Screening COc1ccc(-n2nc(C(=O)NCCC3=CCCCC3)c3ccccc3c2=O)cc1 returned liver stage inactive.
For CC(=O)N(C1=C(N2CCOCC2)C(=O)c2ccccc2C1=O)c1cccc(Cl)c1 the results were liver stage 0.74µM*.
COC(=O)C1=C(C)NC2=C(C(=O)CC(c3ccccc3Cl)C2)C1c1ccc(OC)c(OC)c1 (centres undefined) was read as liver stage inactive.
CCc1ccc2c(c1)C(c1ccncc1)=NNC(c1ccncc1)=N2 was read as liver stage inactive.
For CCOC(=O)C1=C(C)N=c2sc(=Cc3cc(Br)ccc3O)c(=O)n2C1c1ccccc1 (centres undefined) the results were liver stage inactive.
For CC[n+]1c(C=Cc2ccc(Cl)cc2)ccc2ccccc21 the results were liver stage inactive.
Screening CC(/C=C/C(=O)NO)=C\C(C)C(=O)c1ccc(N(C)C)cc1 (centres undefined) returned liver stage inactive.
`Cn1c(C(OCC(=O)N2CCN(Cc3ccccc3)CC2)c2cccnc2)cc2ccccc21` (centres undefined) gave liver stage inactive.
`O=C(Nc1ccccc1)Nc1ccc(S(=O)(=O)Nc2ccc(Br)cc2)cc1` gave liver stage inactive.
Clc1ccc(-c2c[n+](CCc3ccccc3)c3n2CCC3)cc1 was read as liver stage inactive.
Screening Cc1cc(Nc2ccc(C(=O)n3ccnc3)cc2)n2ncnc2n1 returned liver stage inactive.
For COc1cc(NC(C)CCCN(Cc2ccccc2OC)C(=O)Nc2ccccc2OC)c2ncccc2c1 (centres undefined) the results were liver stage inactive.
`COc1ccc(-n2c(SCC(=O)Nc3cc(Cl)ccc3OC)nnc2-c2ccccc2)cc1` gave liver stage inactive.

Random excerpt: six records from the list
CCc1ccc2c(c1)C(c1ccncc1)=NNC(c1ccncc1)=N2 was read as liver stage inactive.
For CCOC(=O)C1=C(C)N=c2sc(=Cc3cc(Br)ccc3O)c(=O)n2C1c1ccccc1 (centres undefined) the results were liver stage inactive.
Clc1ccc(-c2c[n+](CCc3ccccc3)c3n2CCC3)cc1 was read as liver stage inactive.
Screening Cc1cc(Nc2ccc(C(=O)n3ccnc3)cc2)n2ncnc2n1 returned liver stage inactive.
For CC(=O)N(C1=C(N2CCOCC2)C(=O)c2ccccc2C1=O)c1cccc(Cl)c1 the results were liver stage 0.74µM*.
`Nc1ccc(-c2cc(N)n(-c3ccc(Oc4ccccc4)c(S(=O)(=O)O)c3)n2)cc1` gave liver stage inactive.
